High-throughput results deposited in PubChem BioAssay by National Center for Advancing Translational Sciences (NCATS).
VACV Venus inh: vaccinia inhibition (Venus reporter). Vaccinia virus Venus reporter expression, fluorescence. Potency, µM (series often up to 36.5 µM), without a hit: at the highest dose activity change, negative = inhibition, hits mostly inhibitors. 0.46% of 330,000 active; active means well fitted inhibition curve with a large enough effect; inconclusive means small, poorly fitted or top-dose-only effect; inactive means no such curve, though single readings can be large or run the other way; tested in A549 cells; further: nearly all actives have a fitted effect of over 30% in size; inactives centre near -10
Vaccinia mCherry: inhibitors of vaccinia virus infection (mCherry reporter signal) | Potency, µM (doses to about 36.5 µM), inactives show top-dose activity change, negative = inhibition, hits mostly inhibitors | Vaccinia virus mCherry reporter infection, fluorescence; about a quarter of the inactives have no number | 0.63% of 310,000 active; active = well fitted inhibition curve with a large enough effect; inconclusive = small, poorly fitted or top-dose-only effect; inactive = no such curve, though single readings can be large or run the other way; tested in A549 cells; further: nearly all actives have a fitted effect of over 35% in size; inactives centre near -10
* hit, by the source's call; i = inactive; ? = inconclusive; . = not tested or not shown; [ ] = remark or other dose. On the % scale 0 is the no-effect control and ±100 the full control effect; potency means the concentration at half of the fitted maximal effect.

| SMILES | VACV Venus inh | Vaccinia mCherry |
| --- | --- | --- |
| CCN(CC)CCC#CC(O)(c1ccccc1)C1CCCCC1 (centres undefined) | -24% | i |
| CC(C)c1nc(CNC(=O)C2CCC(=O)N(CCc3ccc(Cl)cc3)C2)no1 (centres undefined) | -15% | -2% |
| O=C(OCc1ccccc1)c1c(-c2ccccc2)oc2c1C(OCCO)CCC2 (centres undefined) | -2% | 1% |
| Cn1cc(S(=O)(=O)NCc2ccco2)c(=O)n(C)c1=O | -4% | i |
| CCOC(=O)C1(CC)NC(c2ccc(N(C)C)cc2)C2C(=O)N(C)C(=O)C21 (centres undefined) | 3% | -7% |
| CC(NC(=O)c1cc(S(=O)(=O)N(C)C)ccc1Cl)C1CC2CCC1C2 (centres undefined) | -7% | -8% |
| O=S(=O)(c1ccc(-c2n[nH]c(=S)o2)cc1)N1CCCC1 | -7% | i |
| COc1ccc(CN2C(=O)NC(=O)/C(=C/c3ccc(OC)c(OC)c3OC)C2=O)cc1 | -4% | i |
| O=C(NC1CC1)c1sccc1-n1cccc1 | -14% | -17% |
| O=S1(=O)N=C(N2CCCc3ccccc32)c2ccccc21 | 3% | . |
| CC(C)C(=O)NC(NC1CCS(=O)(=O)C1)C(Cl)(Cl)Cl (centres undefined) | 7% | -11% |
| N#CC1=C(SCc2ccccc2)NC(=O)CC1c1cccc(O)c1 (centres undefined) | -26% | -11% |
| O=C(O)c1ccc(N2C(=O)C3C4c5ccccc5C(Br)(c5ccccc54)C3C2=O)cc1 (centres undefined) | -5% | -19% |
| CC(=S)/C=C1\Sc2ccccc2N1C | 4% | i |
| COc1ccc(C(CNc2ncnc3sc(C)c(C)c23)N(C)C)cc1 (centres undefined) | -1% | -9% |
| Cc1nnc(NC(=O)c2cccc(S(=O)(=O)N3CCOCC3)c2)s1 | 4% | . |
| CC1OC(c2ccccc2)OC2COC(c3ccccc3)OC12 (centres undefined) | -5% | -23% |
| Cn1cccc1/C=C1\SC(=O)N(c2ccccc2)C1=O | 0% | i |
| COc1cc(NC(=O)Cn2nnc(-c3ccncc3)n2)cc(OC)c1 | -4% | i |
| COc1ccc(NC(=S)NN2CCN(C)CC2)cc1OC | -14% | i |
| CN(CCc1ccccc1)C(=O)c1cccc(NC(=O)Cc2cccc(NC(=O)C3CCN(C(=O)C4CCCCC4)CC3)c2)c1 | -29% | ? |
| c1ccc(C[C@H]2CNCCN2CC2CCCCC2)cc1 | -13% | -8% |
| CCOc1cc(CNC(=O)Cn2c(=O)c3cccn3c3ccc(F)cc32)cc(OCC)c1OCC | ? | ? |
| COc1ccc(OCCN2CCN(C(=O)c3ccc(OC(F)F)c(OC)c3)CC2)cc1 | -12% | -4% |
| O=C(COC(=O)c1cc[n+]([O-])cc1)Nc1ccc(F)c([N+](=O)[O-])c1 | 6% | -11% |
| O=C(Nc1ccccc1N1CCOCC1)c1cc(-c2ccco2)nc2ccccc12 | -15% | . |
| CCO/C(C)=N/Oc1cc(OC)cc(OC)c1 | 0% | i |
| CCOc1cc(C2CC(=O)Nc3nc(SCc4ccccc4)[nH]c(=O)c32)ccc1O (centres undefined) | -10% | -21% |
| COc1ccc(S(=O)(=O)Nc2nnc(Cc3ccc(OC)c(OC)c3)s2)cc1 | 3% | -4% |
| O=C(NCc1ccco1)c1nc2ccccc2s1 | -18% | -1% |
| CC1(C(=O)N2CC3(CC(c4ccccc4)=NO3)C[C@H]2C(=O)NCC(N)=O)CC1 (some centres undefined) | 1% | i |
| CNC(=O)N(c1ccccc1)c1ccccc1 | 11% | . |
| CCOC(=O)C1CCN(C(=O)c2cc3c(s2)-c2ccccc2OC3)CC1 | 5% | -11% |
| O=C(CSc1nnc(CNC(=O)c2c(F)cccc2F)o1)NCc1ccco1 | -13% | i |
| CN(C)CCn1c(=O)n(-c2cccc(Cl)c2)c(=O)c2c3c(sc21)CCCCC3 | -23% | 6% |
| CC1(C)CC(=O)C(C=NCCc2ccc(O)cc2)=C(O)C1 | -4% | i |
| CC(=O)C1CCC2C3CCC4=CC(=O)CC[C@]4(C)[C@@]3(F)C(O)C[C@]12C (some centres undefined) | -13% | -2% |
| CCn1nnc(NC(=O)c2cccc(-c3cc4ccccc4oc3=O)c2)n1 | -21% | -4% |
| CC(NC(=O)COC(=O)C1=NN(c2ccccc2)C(=O)CC1)c1ccccc1 (centres undefined) | -4% | -8% |
| O=S(=O)(NC1CC(NS(=O)(=O)OCC(Cl)(Cl)Cl)C2CCCCC12)OCC(Cl)(Cl)Cl (centres undefined) | 11µM* | ? |

Quoted at random: 2 records from the list.
| SMILES | VACV Venus inh | Vaccinia mCherry |
| --- | --- | --- |
| CNC(=O)N(c1ccccc1)c1ccccc1 | 11% | . |
| CCOC(=O)C1CCN(C(=O)c2cc3c(s2)-c2ccccc2OC3)CC1 | 5% | -11% |

Next part:
| SMILES | VACV Venus inh | Vaccinia mCherry |
| --- | --- | --- |
| Nc1nonc1-n1nnc(C(=O)N/N=C/c2ccoc2)c1-c1ccccc1 | 11% | 1% |
| COCCCn1c(SCC(=O)c2ccccc2)nc2ccccc2c1=O | -13% | -24% |
| O=[N+]([O-])c1nn(-c2ccc3c(c2)OCCO3)n(O)c1=NCc1ccccc1Cl | -16% | -6% |
| COc1cccc(C(=O)NCCS(=O)(=O)N2CCCCC2)c1 | -6% | i |
| CS(=O)(=O)c1cccc(C(=O)OCC(=O)NC(=O)Nc2ccccc2F)c1 | -6% | i |
| CC1CC(C)CN(S(=O)(=O)c2ccc(C(C)(C)C)cc2)C1 (centres undefined) | -11% | i |
| COC(=O)Cn1c(C)c(C(C)=O)c(C(C)=O)c1C | -8% | -25%[1.46 µM] |
| COc1ccc([N+](=O)[O-])cc1N(CC(=O)N1CCN(Cc2ccccc2)CC1)S(C)(=O)=O | -10% | -3% |
| O=C(OCC(=O)N1CCCC1)c1ccccc1O | 16% | -13% |
| CCN(CC)C(=O)COc1cc(C)c(Cl)c(C)c1 | -3% | -15% |
| ON=C1c2cc(OCCN3CCCCC3)ccc2-c2ccc(OCCN3CCCCC3)cc21 | 8.9µM* | ? |
| N#Cc1cccc(-c2cn(S(=O)(=O)c3ccc(Cl)cc3)nc2N)c1 | -27% | . |
| O=[N+]([O-])c1ccc(OCCn2cnc3ccccc32)cc1 | 0% | -8% |
| COc1ccc(C(CCN)Cc2ccccc2)cc1 (centres undefined) | -18% | -21% |
| COc1cccc(/C=C/C(=O)OCC(=O)N2c3ccccc3CC2C)c1OC (centres undefined) | -22% | -2% |
| CCc1ccccc1NC(=O)CSc1n[nH]c(-c2cccnc2)n1 | -6% | -15% |
| O=C(CCS(=O)(=O)c1ccc(Cl)cc1)Nc1ccc(N2CCOCC2)cc1 | 2% | -30% |
| C=C(C)c1cccc(C(C)(C)NC(=O)N2CC(C)OC(C)C2)c1 (centres undefined) | -3% | -15% |
| COc1ccc(-c2cn(CCN)c(-c3ccncc3)n2)cc1 | -12% | i |
| CN1C(C(=O)NCc2cccc(Br)c2)CC2Cn3c(nc4cc5ccccc5cc43)C21 (centres undefined) | -26% | -11% |
| COc1ccc(OC)c2[nH]c(=O)c(CCNC(=O)Cc3cccs3)cc12 | -15% | i |
| CC(=O)N1CCc2cc(Br)cc(S(=O)(=O)NCC3CCCO3)c21 (centres undefined) | -9% | i |
| COc1ccc(NS(=O)(=O)c2ccc3oc(SC4CCOC4=O)nc3c2)cc1 (centres undefined) | ? | . |
| O=C1Cc2ccccc2N1c1c(Cl)cccc1Cl | -11% | . |
| Cc1c(NC(=O)c2ccc(Br)o2)cccc1-c1nc2ccccc2o1 | 13% | -6% |
| O=C(Nc1ccc(N2CCN(C(=O)c3ccco3)CC2)c(Cl)c1)c1c(F)c(F)c(F)c(F)c1F | 3% | -9% |
| O=C(CCCO)NC1Cc2ccccc2C1 | -13%[7.34 µM] | -6%[7.34 µM] |
| CCOC(=O)C1CCN(C(=O)C(C)N(c2ccc(Oc3ccccc3)cc2)S(C)(=O)=O)CC1 (centres undefined) | -11% | i |
| C[C@H](CO)N1C[C@H](C)[C@@H](CN(C)C)Oc2c(NC(=O)C3CC3)cccc2C1=O | -2% | i |
| CCOc1ccc(C(=O)Nc2nc(C)cc(C)n2)cc1[N+](=O)[O-] | -8% | -1% |
| O=C(O)C1C(c2ccccc2)=C1c1ccc(Br)cc1 (centres undefined) | -1% | i |
| Cc1c(Cl)cccc1NC(=O)c1oc2ccc(S(=O)(=O)N3CCC4(CC3)OCCO4)cc2c1C | ? | -26% |
| COc1ccc(-c2c(-c3ccsc3)oc3ccc(N4CCOCC4)cc23)cn1 | -13% | -14% |
| COc1ccc(CNC(=O)CN(C)Cc2ccc(C(C)(C)C)cc2)cc1 | -5% | -1% |
| CCOc1ccc(C(C)=O)cc1Cn1ccsc1=N | -3% | -9% |
| O=C(Nc1ccc(F)c(Cl)c1)C1CC(=O)N(Cc2ccco2)C1 (centres undefined) | -8% | i |
| O=C(NCc1cccs1)c1ccc(CSc2nc3cccnc3n2Cc2ccccc2)cc1 | -9% | -9% |
| CC1(C(=O)NS(=O)(=O)c2ccccc2)CCN1C(=O)Cc1ccccc1 (centres undefined) | -7% | 20% |
| COc1ccc(CCNC(=O)c2ccc(Cn3c(=O)[nH]c4cc(OC)c(OC)cc4c3=O)cc2)cc1OC | -2% | -12% |
| CC1(C)CN=C(N(Cc2ccccc2)C(=O)Nc2ccccc2)S1 | -16% | -6% |

Profiles, looked up by structure.
`CC1(C(=O)NS(=O)(=O)c2ccccc2)CCN1C(=O)Cc1ccccc1` (centres undefined) across the screens: VACV Venus inh = -7%; Vaccinia mCherry = 20%
`COc1ccc(-c2c(-c3ccsc3)oc3ccc(N4CCOCC4)cc23)cn1` across the screens: VACV Venus inh = -13%; Vaccinia mCherry = -14%
`O=C1Cc2ccccc2N1c1c(Cl)cccc1Cl` across the screens: VACV Venus inh = -11%; Vaccinia mCherry = .

Continuation:
| SMILES | VACV Venus inh | Vaccinia mCherry |
| --- | --- | --- |
| C[C@H]1CN([C@@H](C)CO)C(=O)c2cccc(NC(=O)c3nc4ccccc4s3)c2O[C@H]1CN(C)C(=O)Nc1ccc(F)cc1 | ? | ? |
| COc1ccc(CNc2nc3ccccc3n2C(C)C)c(O)c1 | -19% | -6% |
| COc1ccc(C(=O)c2c(-c3ccc(OC)cc3)oc3ccc(-c4ccc(OC)nc4)cc23)cc1 | -21% | -6% |
| O=C1CCCC(=O)C1=Cc1c[nH]c2ccccc12 | -8% | -10% |
| COCCSc1nnc(NS(=O)(=O)c2ccc(C)cc2)s1 | -3% | -12% |
| C=C(Br)COC(c1ccco1)[C@H](Cc1ccccc1)NC(=O)OC(C)(C)C (some centres undefined) | -23% | -9% |
| OC1(c2cccc(C(F)(F)F)c2)CCN(c2ccc(-c3ccccc3)nn2)CC1 | -13% | -7% |
| NS(=O)(=O)c1ccc(CCNc2ccn3nc(-c4cccc(C(F)(F)F)c4)cc3n2)cc1 | ? | 8.9µM* |
| COC(=O)c1ccc2c(c1)nc(C)n2CCO | -7% | -11% |
| CCOC(=O)c1sc(=NC(=O)c2ccc(OC)c(OC)c2)n(C)c1C | -4% | i |
| Cc1cccc(Nc2ccccc2C(=O)OCC(=O)N2CCOCC2)c1C | -13% | -17% |
| Cc1ccc(CN2[C@H](C)[C@H](c3ccccc3)OCCS2(=O)=O)cc1 | -27% | -10% |
| CC(=O)Nc1ccc(S(=O)(=O)N(C)CC(=O)OC(C)C(=O)NC2(C#N)CCCCC2)cc1 (centres undefined) | -3% | i |
| CCCCCC(=O)N1C[C@H](O)[C@@H](n2cc(COC(=O)c3ccccc3)nn2)C[C@@H]1c1ccc(OC)cc1 | -6% | i |
| CCc1ccc(N(C(=O)c2csnn2)C(C(=O)NC(C)(C)C)c2ccccn2)cc1 (centres undefined) | -14% | -13% |
| C=CCOc1c(CNc2ccc(C(=O)O)cc2)cccc1OC | -12% | i |
| CCC/C=C(\CCC)C(NS(=O)(=O)c1cccc2cccnc12)c1ccc(C(=O)OC)cc1 (centres undefined) | ? | -23% |
| COc1ccc(OC)c(CN2CCOc3ccc(C(O)c4cccnc4)cc3C2)c1 (centres undefined) | -13% | -22% |
| Cc1cccnc1NC(=O)C1CCC1 | -13% | -12% |
| COc1cccc(CN(CCC(C)C)S(=O)(=O)c2cc(Br)ccc2Br)c1 | -5% | i |
| Cc1cc(SCC(=O)N/N=C/c2ccc(C(=O)O)cc2)nc2ccccc12 | -7% | i |
| CSc1ncc(C(=O)Nc2cccnc2)c(C(F)(F)F)n1 | -18% | i |
| CCCCNC(=O)C[C@@H]1C[C@@]2(C(=O)OC)CCCCC=C2N(Cc2ccc3c(c2)OCO3)C1=O | -16% | -8% |
| CN(C)c1ccc(-c2nnc3n(Cc4ccccc4)c(=O)c4ccccc4n23)cc1 | -15% | -29% |
| CCNC(=O)c1c(NC(=O)c2cc(-c3cc(C)ccc3O)n[nH]2)sc2c1CCCC2 | 5% | i |
| O=C(Nc1ccc(Cl)cc1Cl)c1cc(S(=O)(=O)N2CCCCCC2)ccc1F | -9% | -12% |
| O=C(CN1CCSC1=O)Nc1ccc(N2CCOCC2)cc1 | 6% | -14% |
| Cc1ccc(-n2c(SCC(=O)Nc3nccs3)nc3c(c2=O)SCC3)cc1 | -16% | -12% |
| CC12CCC(=O)N1C(C(=O)N1CCN(c3ccccc3)CC1)CS2 (centres undefined) | -3% | -11% |
| CCN(CC)c1ccc(C2C(C(=O)Nc3ccccn3)=C(C)NC3=C2C(=O)CC(C)(C)C3)cc1 (centres undefined) | -16% | -15% |
